VACV mCherry inh – vaccinia inhibition (mCherry reporter) | Vaccinia virus mCherry reporter infection, fluorescence; about a quarter of the inactives have no number | Potency, µM (highest dose often 36.5 µM), for the others: at the highest dose activity change, negative = inhibition, hits mostly inhibitors | 0.63% of 310,000 active | AID 720579; active = well fitted inhibition curve with a large enough effect; inconclusive = small, poorly fitted or top-dose-only effect; inactive = no such curve, though single readings can be large or run the other way; tested in A549 cells; note: nearly all actives have a fitted effect of over 35% in size; inactives centre near -10
VACV Venus inh – vaccinia inhibition (Venus reporter). Vaccinia virus Venus reporter expression, fluorescence. Potency, µM (doses to about 36.5 µM), for inactives: at the top dose activity change, negative = inhibition, hits mostly inhibitors. 0.46% of 330,000 active. AID 720580; active means well fitted inhibition curve with a large enough effect; inconclusive means small, poorly fitted or top-dose-only effect; inactive means no such curve, though single readings can be large or run the other way; tested in A549 cells; note: nearly all actives have a fitted effect of over 30% in size; inactives centre near -10
* = called active by the depositor; i = inactive; u = inconclusive; x = not tested or not shown; [ ] = dose if it differs, or a comment. % is set by controls: 0 for no effect and ±100 for the full control effect; potency is the fitted concentration of half-maximal effect.

SMILES	VACV mCherry inh	VACV Venus inh
COCCn1nnnc1C(c1cc2ccc(C)cc2[nH]c1=O)N(Cc1ccco1)Cc1cccs1 (stereo not drawn)	-24%	-14%
CCN(C(=O)COC(=O)CCOc1cccc(C)c1)c1c(N)n(Cc2ccccc2)c(=O)[nH]c1=O	-6%	-22%
CC1CCCCC12NC(=O)N(CC(=O)Nc1sc3c(c1C(N)=O)CCC3)C2=O (stereo not drawn)	x	-9%
O=C(N[C@H]1C/C=C\C[C@H](CC(=O)N(CCO)Cc2ccccc2)C(=O)N[C@H](Cc2c[nH]c3ccccc23)COC1=O)OCC1c2ccccc2-c2ccccc21	-25%	-26%
CCOC(=O)C1=C(c2ccccc2)Nc2ncnn2C1c1ccc(Cl)cc1 (stereo not drawn)	-8%	-8%
C=CCNC(=O)CSc1nc2scc(-c3ccco3)c2c(=O)n1CC=C	-13%	-8%
COc1cc(/C=N\NC(=O)c2ccc(-c3ccccc3)cc2)cc(OC)c1OC(C)=O	u	u
COc1cccc(CC(=O)Nc2ccc(S(=O)(=O)Nc3nccs3)cc2)c1	i	-15%
O=C(NCCOc1ccccc1)C1=CC=CN2CCS(=O)(=O)N=C12	-11%	-4%
c1ccc(CNc2ncnc3sc4c(c23)CCC4)nc1	x	-6%
CCOc1ccc(OCC)c(NC(=O)CSc2nnc(C3CC3)n2CC)c1	-15%	-20%
CN(CCc1ccccc1)C(=O)c1ccc(NC(=O)Cc2ccc([N+](=O)[O-])cc2)cc1	u	u
CCC1(C)COC(c2ccc3c(c2)OCO3)OC1 (stereo not drawn)	i	-12%
COc1ccc(C(=S)N2CCCC2)cc1OC	-15%	-3%
Cc1cccc(C(=O)O[C@H]2[C@H](C)NS(=O)(=O)[C@H]3CC4C=C[C@]23O4)c1	i	-20%
Cc1ccc(C(=O)N2CC(=O)Nc3ccccc32)o1	-9%	-10%
COc1ccc(-n2c(=O)c3ccccc3n(CC(=O)NCC3CCCO3)c2=O)cc1 (stereo not drawn)	-11%	-7%
COCC1CCCCN1C(=O)c1cc(COc2ccc(C)c(C)c2)on1 (stereo not drawn)	-4%	-2%
NC(=S)c1ncc(C(F)(F)F)cc1Cl	-10%	-9%
C/C(=N/NC(=O)c1nnn(-c2nonc2N)c1CSc1ccc(C)cc1)c1ccncc1	i	-12%
N#Cc1c(C(F)(F)F)cc(-c2ccccc2)n(N)c1=O	i	5%
CCOC(=O)C1CCN(S(=O)(=O)c2ccc3[nH]c(=O)c(=O)[nH]c3c2)CC1	-1%	-7%
CC(C)c1ccc(NS(=O)(=O)c2ccc(N3C(=O)CCC3=O)cc2)cc1	-7%	11%
Cn1c(CO)nc2cc(N)ccc21	-21%	-8%
CCSc1nn(CC(=O)Nc2ccc(C(=O)OC)cc2)c(N)c1S(=O)(=O)c1ccc(C)cc1	-7%	-20%
Cc1ccc(CN2CCN(/N=C/c3cc(Br)ccc3O)CC2)cc1	i	-7%
CC1(C(=O)NNC(=O)C2CCCCC2)CC1(Cl)Cl (stereo not drawn)	i[7.34 µM]	-9%[7.34 µM]
CCOc1ccc(CNC(=O)C2CC(=O)N(C3CCCC3)C2)cc1OC (stereo not drawn)	-5%	1%
CC1(C)CC2(CC(c3ccccc3F)c3ccc(O)c(O)c3O2)NC(=S)N1 (stereo not drawn)	5%	6%
COc1ccc(CNC(=O)C(c2ccc(C)o2)N(Cc2cccs2)C(=O)Cc2cccs2)cc1 (stereo not drawn)	u	-25%
Cc1ccc2[nH]c(=O)c(CN(Cc3cccnc3)C(=S)NCCCN(C)C)cc2c1	-3%	-8%
CC(=O)c1ccc(C(=O)NC2CC(C)(C)Cc3c2cnn3-c2ccccc2)cc1 (stereo not drawn)	-2%	-9%
CC(=O)Oc1ccc(Cl)c2cccnc12	-8%	-3%
COC(=O)c1cn(C(=O)c2ccc(Cl)cc2)c2ccccc12	-13%	-8%
O=C(Oc1ccc(-c2nnco2)cc1)c1cc(S(=O)(=O)N2CCOCC2)ccc1F	-10%	-13%
CCC1=Nc2ccccc2-c2nnc(SC)nc2O1	x	-4%
CC(=O)C(Sc1nccc(-c2cccs2)n1)C(C)=O	i	1%
O=C(NC1CCCCC1)C(c1ccc(F)cc1)N(Cc1ccco1)C(=O)CN1C(=O)c2ccccc2S1(=O)=O (stereo not drawn)	i	-14%
O=C(O)c1ccccc1NS(=O)(=O)c1ccc(NN=Cc2ccc(F)cc2)c([N+](=O)[O-])c1	-13%	10%
N/C(Cc1cccc2ccccc12)=N\OC(=O)Cc1cccs1	-9%	-9%
CC1CN(C(=O)CCc2cc(C(C)(C)C)c(O)c(C(C)(C)C)c2)CC(C)O1 (stereo not drawn)	u	-14%
C#CC[N+]1(C)[C@@H]2CC[C@H]1CC(OC(=O)C(CO)c1ccccc1)C2 (stereo partly drawn)	i	-13%
O=C(Nc1ccc2c(c1)OC1(CCCC1)O2)C1CC1	-16%	-12%
CSc1ccccc1NC(=O)c1cc(C2CC2)on1	i	-13%
O=C(NC1CCCC1)c1cc(-c2ccccc2)nc2ccccc12	-15%	-2%
Cc1ccc(NC(=O)CSc2ccc(C(N)=O)cc2[N+](=O)[O-])cc1	-7%	-24%
CCCn1c(SCC(=O)N2c3ccc(F)cc3CCC2C)nnc1-c1ccccn1 (stereo not drawn)	-12%	-5%
Cc1ccc2c(c1)sc(C)[n+]2CCCS(=O)(=O)[O-]	i	-6%
O=C(CN1C(=O)C2C3C=CC(C3)C2C1=O)OCC(=O)c1ccccc1 (stereo not drawn)	-14%	-13%
COc1ccccc1NC(=O)c1sc2ncn(Cc3ccc(C)cc3)c(=O)c2c1C	i	-9%
Cc1ccc(-c2onc(C)c2C)cc1S(=O)(=O)NCc1cccs1	i	-29%
COc1ccc(C(C(=O)NC(C)(C)C)n2c(-c3ccc(=O)[nH]c3)nc3ccccc32)cc1 (stereo not drawn)	-13%	-15%
C=C1CCN([C@@H](CC(C)C)C(=O)N2CCOCC2)S(=O)(=O)c2ccccc21	i	0%
Cc1cc(=O)oc(C)c1C(=O)NCc1ccccc1	-8%	-1%
N#C/C(=C(/O)c1ccc(C(=O)c2ccccc2)cc1)c1nc2ccccc2[nH]1	i	-13%
Cc1ccc(CSCC(=O)Nc2c(C)n(C)n(-c3ccccc3)c2=O)cc1	i	-12%
N#C/C(=C(/O)COC(=O)CSc1ccc2ccccc2c1)c1nc2ccccc2[nH]1	-3%	4%
O=C(Nc1cccnc1)C1CCN(S(=O)(=O)c2cccc3nonc23)CC1	-11%	-7%
COc1cc(N(Cc2ccccc2)Cc2ccccc2)c2ncn(C(C)C)c2c1	-18%	-14%
c1cncc(CNc2ncnc3sc4c(c23)CCC4)c1	-8%	-7%

(more compounds)
SMILES	VACV mCherry inh	VACV Venus inh
CCOC(=O)N1CCC(NC(=O)c2cc3c(-c4cccc(OC)c4)nn(C)c3s2)CC1	-18%	9%
COc1ccc(OC)c(-c2nnc(SCC(=O)N3CCCC3)o2)c1	i	-9%
Cc1ccc(NC(=O)COC(=O)CCC(=O)c2cccs2)c(C)c1	i	3%
O=C(CCC(=O)c1ccc(F)cc1)Nc1cc(Cl)cc(Cl)c1	x	-17%
COc1ccc(/C=C/C(=O)NC(=S)N2CCSCC2)cc1	-5%	-8%
Nc1nc2c(nc(Cl)n2C2OC(CO)C(O)C2O)c(=O)[nH]1 (stereo not drawn)	-2%	-4%
O=C(NC1CCCC1)C1c2ccccc2OCC(=O)N1CCCN1CCOCC1 (stereo not drawn)	i	2%
CCC(=O)N(CC)C1=C(O)c2ccccc2C(=O)C1=O	-18%	-5%
COC(=O)c1ccc(CNC(=O)COC(=O)Cc2ccsc2)cc1	-6%	-13%
CCC(CC)N1CCN(Cc2nc3ccc([N+](=O)[O-])cc3c(=O)n2-c2ccccc2F)CC1	19%	-12%
COc1cc(=O)[nH]c(=O)n1C(=O)Cc1ccccc1	-20%	-18%
Cc1cc2c(c(-c3cnccn3)c1)OC(CNC(=O)c1ccccc1C(F)(F)F)C2 (stereo not drawn)	-7%	-2%
Cc1nc2ccc(F)cc2cc1C(=O)NCC1CCCO1 (stereo not drawn)	-2%	9%
CNC(=S)N1CCN(c2ccc([N+](=O)[O-])cc2)CC1	i	-16%
COc1ccc(/C=C2\SC(=O)NC2=S)cc1OC	-23%	16%

Entries listed so far that have a tert-butyl group, in the order listed:
SMILES	VACV mCherry inh	VACV Venus inh
CC1CN(C(=O)CCc2cc(C(C)(C)C)c(O)c(C(C)(C)C)c2)CC(C)O1 (stereo not drawn)	u	-14%
COc1ccc(C(C(=O)NC(C)(C)C)n2c(-c3ccc(=O)[nH]c3)nc3ccccc32)cc1 (stereo not drawn)	-13%	-15%

New compounds follow:
SMILES	VACV mCherry inh	VACV Venus inh
O=C(Cc1ccc(NC(=O)N2CCCCc3ccccc32)cc1)NCc1ccccc1Br	-15%	-10%
Cc1ccc2nc(-c3ccc(NC(=O)COc4c(C)ccc(C)c4C)cc3)sc2c1	-20%	-6%
Cc1cc2ncc(C(=O)Nc3ccsc3C(=O)O)c(C)n2n1	i	-10%
CN(C)CCCNc1oc(-c2ccccc2)nc1C#N	x	-12%
CCOc1ccc(C(C(=O)NCC2CCCO2)N(C(=O)c2snc(C(N)=O)c2N)c2ccc3c(c2)OCCO3)cc1 (stereo not drawn)	-18%	12%
CC(C)Cc1nnc(NC(=O)c2ccc(-n3cncn3)c([N+](=O)[O-])c2)s1	4%	-7%
COc1ccccc1C(=O)Nc1ccc(S(=O)(=O)Nc2cnc3ccccc3n2)cc1	i	-1%
COc1ccc(NC(=O)c2cccnc2)cc1OCC(C)C	i	-5%
Cc1cccc2nc(CSc3ccccc3C(=O)O)cn12	i	-8%
CCc1ccc(C(=O)NC(=S)Nc2ccc3c(c2)OCCO3)cc1	i	-15%
CC(C)(C)c1ccc(Oc2nc3ccccn3c(=O)c2/C=C(\C#N)c2nc3ccccc3s2)cc1	-12%	-2%
O=C(NC1CCCC1)c1ccc2nc(-c3ccco3)c(-c3ccco3)nc2c1	-15%	-24%
O=C(NCC(c1ccco1)N1CCCC1)c1cn(-c2ccccc2)nc1-c1ccc(F)cc1 (stereo not drawn)	-21%	-16%
CC1c2ccccc2-n2nncc2CN1CC1CCCCC1 (stereo not drawn)	-13%	-3%
COc1cc(NC(=O)CN2c3ccccc3CC2C)cc(OC)c1OC (stereo not drawn)	-9%	-24%
CC(C)CCn1c(=O)c(C(=O)N/N=C/c2cccc(F)c2)c(O)c2ccccc21	-12%	-8%
CCOC(=O)C(=CNCC(=O)O)C(=O)OCC	-3%	5%
Cc1ccc(NC(=S)N2CCCCCC2)c(C)c1	u	-6%
O=C1CC(c2ccc(Cl)cc2)N=C(NC(=O)c2ccccc2)N1 (stereo not drawn)	-7%	-15%
C[C@H]1C[C@@H]2[C@H]([C@@H](O)C[C@@]3(C)[C@H]2CC[C@]3(O)C(=O)CO)[C@@]2(C)C=CC(=O)C=C12	-2%	-24%
CC(NC(=S)NCCc1ccccc1)C(c1cccs1)N1CCN(C)CC1 (stereo not drawn)	-3%	-23%
COc1ccc(C2C(C(=O)Nc3ccccc3)=C(C)Nc3nc(-c4ccccc4)nn32)cc1OC (stereo not drawn)	-2%	-1%
CC[C@H](C)[C@H](NC(=O)[C@@H]1CCCN1C(=O)[C@H](CCC(=O)O)NC(=O)[C@@H](NC(=O)[C@H](Cc1ccccc1)NC(=O)[C@@H]1CCCN1C(=O)[C@@H](N)Cc1ccc(O)cc1)C(C)C)C(=O)O	-41%[3.33 µM]	-38%[3.33 µM]
CCOC(=O)c1ccc2ncc(C(=O)OCC)c(NCc3ccco3)c2c1	x	u
CN(Cc1ccco1)c1nc(-c2ccccc2Cl)nc2ccccc12	i	-14%
O=C(NCCSCc1c(F)cccc1Cl)C1CCN(S(=O)(=O)Cc2ccccc2)CC1	-1%	1%
Nc1ccc(N2CCCC2)c(S(=O)(=O)Nc2cccc(C(F)(F)F)c2)c1	-1%	-6%
COC(=O)C1=C(COc2ccccc2)NC(=O)NC1c1ccc(Br)cc1 (stereo not drawn)	3%	-10%
CCc1nc2ccc(C(=O)NCc3ccc(OC)cc3)cn2c1N(CC)CCN(C)C	29%	-12%
Cn1c(=O)c2c(nc(N3CCc4ccccc4C3)n2Cc2ccccc2F)n(C)c1=O	-13%	-5%
O=C(COc1ccccc1)N1CCN=C1SCc1ccc(F)cc1	u	-21%
COc1ccc(C(=O)N/N=C2\SCC(=O)N2Cc2ccc3c(c2)OCO3)c(OC)c1	-6%	u
Cc1cccc2cc(CN(Cc3ccccc3)Cc3nnnn3Cc3ccccc3)c(=O)[nH]c12	-13%	-18%

A second format for part of the listing above:
| Compound | VACV mCherry inh | VACV Venus inh |
| --- | --- | --- |
| CC(C)CCn1c(=O)c(C(=O)N/N=C/c2cccc(F)c2)c(O)c2ccccc21 | -12% | -8% |
| CCOC(=O)C(=CNCC(=O)O)C(=O)OCC | -3% | 5% |

A second format for some results above:
C[C@H]1C[C@@H]2[C@H]([C@@H](O)C[C@@]3(C)[C@H]2CC[C@]3(O)C(=O)CO)[C@@]2(C)C=CC(=O)C=C12
- VACV mCherry inh: -2%
- VACV Venus inh: -24%
COC(=O)C1=C(COc2ccccc2)NC(=O)NC1c1ccc(Br)cc1 (stereo not drawn)
- VACV mCherry inh: 3%
- VACV Venus inh: -10%
COc1ccc(C(=O)N/N=C2\SCC(=O)N2Cc2ccc3c(c2)OCO3)c(OC)c1
- VACV mCherry inh: -6%
- VACV Venus inh: u
CC[C@H](C)[C@H](NC(=O)[C@@H]1CCCN1C(=O)[C@H](CCC(=O)O)NC(=O)[C@@H](NC(=O)[C@H](Cc1ccccc1)NC(=O)[C@@H]1CCCN1C(=O)[C@@H](N)Cc1ccc(O)cc1)C(C)C)C(=O)O
- VACV mCherry inh: -41%[3.33 µM]
- VACV Venus inh: -38%[3.33 µM]

Screens deposited in PubChem BioAssay by National Center for Advancing Translational Sciences (NCATS).
